Source: PubChem (National Center for Advancing Translational Sciences (NCATS))
RE007 growth inh – less growth of the S. pombe RE007 Vpr strain; S. pombe RE007 Vpr strain, BacTiter-Glo ATP luminescence, 24 h; control for the full effect not named in the record; Potency, µM (highest dose often 92.2 µM), without a hit: at the top dose activity change, negative = less growth; 360,000 compounds, 0.21% hits; active = well fitted falling curve with a large enough effect; inconclusive = small, poorly fitted or top-dose-only effect; inactive = no such curve, though single readings can be large or run the other way;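 further: on the % scale 0 is the no-effect control and ±100 the full control effect; nearly all actives have a fitted effect of over 50% in size; the assay follows cell death caused by Vpr and the record does not say whether a fall means rescue or toxicity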
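Fission yeast strain RE007, carrying one chromosomally integrated HIV-1 vpr copy, was seeded at OD 0.01 in PMG+AL medium with 23 nL pinned compound. After 24 h at 30 °C and 99% humidity, viability was read by BacTiter-Glo luminescence.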
LASV entry inh – blocks Lassa virus binding to or entry into cells | Lassa virus pseudotype entry inhibition, cell reporter; control for the full effect not named in the record | AID 540256 | Potency, µM (series often up to 37.9 µM), for inactives: top-dose activity change, negative = inhibition, actives largely listed as inhibitors | 300,000 compounds, 1.2% hits; active means well fitted inhibition curve with a large enough effect; inconclusive means small, poorly fitted or top-dose-only effect, or effect the other way; inactive means flat fitted curve, though single readings scatter; tested in HEK293 cells; further: on the % scale 0 is the no-effect control and ±100 the full control effect; nearly all actives have a fitted effect of over 50% in size; luciferase read-out
Cruzain noTriton – inhibitors of Trypanosoma cruzi cruzain without detergent | 200,000 compounds, 2.3% hits | purified cruzain, Z-FR-AMC fluorescence, no detergent | AID 1476 | P25779 | Potency, µM, inactives show max response, negative = inhibition, actives largely listed as inhibitors; active means well fitted curve in the direction sought with a large enough effect; inconclusive means small, poorly fitted or top-dose-only effect, or another doubt; inactive means no such curve, though single readings can be large; an effect the other way counts as inactive or inconclusive;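 further: plate controls were enzyme without inhibitor for no effect and buffer without enzyme for full effect; nearly all actives have a fitted effect of over 40% in size; top concentration of the series not given in the record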
Target sequence (P25779 123-467 limits assumed): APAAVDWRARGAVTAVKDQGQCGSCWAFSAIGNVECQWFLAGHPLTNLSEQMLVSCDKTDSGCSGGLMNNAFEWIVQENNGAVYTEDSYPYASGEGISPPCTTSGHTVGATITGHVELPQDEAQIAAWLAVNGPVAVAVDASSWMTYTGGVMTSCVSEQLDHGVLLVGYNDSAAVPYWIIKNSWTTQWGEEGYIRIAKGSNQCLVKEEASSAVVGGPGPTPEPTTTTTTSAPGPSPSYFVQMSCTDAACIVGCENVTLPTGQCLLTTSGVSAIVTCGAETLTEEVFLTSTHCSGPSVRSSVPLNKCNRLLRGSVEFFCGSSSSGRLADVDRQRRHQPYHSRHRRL
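Purified cruzain at 1.5 nM, pre-incubated 15 min with compound at room temperature in 100 mM sodium acetate pH 5.5, 5 mM DTT, 0.00005% Triton X-100. Reaction started with 2 uM Z-FR-AMC; AMC fluorescence increase over 60 s gives rate.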
Cruzain inh Det – inhibitors of Trypanosoma cruzi cruzain with detergent | P25779 | purified cruzain, Z-FR-AMC fluorescence, 0.01% Triton | Potency, µM, for the others: max response, negative = inhibition, usual class: inhibitors | 200,000 compounds, 0.43% hits | AID 1478; active means well fitted curve in the direction sought with a large enough effect; inconclusive means small, poorly fitted or top-dose-only effect, or another doubt; inactive means no such curve, though single readings can be large; an effect the other way counts as inactive or inconclusive;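 further: plate controls were neutral wells for no effect and buffer without enzyme for full effect; nearly all actives have a fitted effect of over 40% in size; top concentration of the series not given in the record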
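Cysteine protease activity tested under reducing, mildly acidic conditions (100 mM sodium acetate pH 5.5, 5 mM DTT) plus 0.01% Triton X-100. Cruzain 1.5 nM; substrate Z-FR-AMC 2 uM; 15 min compound preincubation at room temperature.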
2A StopGo – FMDV 2A StopGo reporter, luciferase signal. Potency, µM (top dose mostly 57.9 µM), for inactives: at the highest dose signal change, negative = less light. human cells with a luciferase reporter of 2A StopGo recoding; control for the full effect not named in the record. 410,000 compounds, 1.2% hits; active = well fitted falling curve with a large enough effect; inconclusive = small, poorly fitted or top-dose-only effect; inactive = no such curve, though single readings can be large or run the other way; tested in HEK293T cells; further: on the % scale 0 is the no-effect control and ±100 the full control effect; nearly all actives have a fitted effect of over 45% in size; luciferase light after 4 h
NS1 inh – blocks influenza NS1 protein function. S. cerevisiae slowed by influenza A NS1, growth recovery by OD600. Potency, µM (doses to about 46.1 µM), without a hit: top-dose activity, positive = more growth. 270,000 compounds, 0.4% hits. AID 2326; further: actives are rising curves; nearly all actives have a fitted effect of over 50% in size
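Read-out: OD600 growth recovery of NS1-expressing budding yeast. Cells grown overnight at 30C in -URA glucose medium, washed, resuspended and diluted 1:100 in 2% galactose assay medium, pH 6.0. Same strain lacking NS1 served as positive control.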
Marburg entry inh – Marburg virus entry inhibition | Marburg virus pseudotyped entry inhibition, cell reporter; control for the full effect not named in the record; about a third of the inactives were read at about 46 µM | Potency, µM (top dose mostly 37.8 µM), inactives show at the top dose activity change, negative = inhibition, hits mostly inhibitors | 300,000 compounds, 1.8% hits; active = well fitted inhibition curve with a large enough effect; inconclusive = small, poorly fitted or top-dose-only effect, or effect the other way; inactive = flat fitted curve, though single readings scatter; tested in HEK293 cells; about a fifth of its hits are not listed in these tables; further: on the % scale 0 is the no-effect control and ±100 the full control effect; luciferase read-out
SARS PLP yeast – SARS-CoV PLP inhibition in yeast; S. cerevisiae expressing SARS-CoV PLpro, growth rescue; control for the full effect not named in the record; Potency, µM (top dose mostly 32.9 µM), without a hit: at the highest dose activity, positive = growth rescue; 330,000 compounds, 0.19% hits; further: 0% is about no effect; nearly all actives have a fitted effect of over 55% in size; growth read by luminescence after 48 h
Active calls of the source: *; u = inconclusive; x = not tested or not shown; & = joins results of further samples; [ ] = another dose, or the depositor's remark. Unless noted, the call rests on the fitted dose curve; in most records, active means well fitted rising curve with a large enough effect; inconclusive means small, poorly fitted or top-dose-only effect; inactive means no such curve, though single readings can be large or run the other way. Potency means the concentration at half of the fitted maximal effect.

Below each compound: SARS PLP yeast	Marburg entry inh	2A StopGo	LASV entry inh	Cruzain noTriton	Cruzain inh Det	NS1 inh	RE007 growth inh
- CCC1([N+](=O)[O-])COP(N)(=O)OC1 (stereo not drawn)
    x	0.8%	-24.7%	28.0%	x	x	x	24.4%
- CNc1[nH]ncc1[N+](=O)[O-]
    2.2%	14.7%[46.1 µM]	35.6%[activator]	1.1%	x	x	x	-10.5%
- COc1ccccc1NCC(=O)NN=C1CCS(=O)(=O)c2ccc(F)cc21
    7.0%	u	-18.8%	6.5%	x	x	x	-0.1%
- CCOC(=O)c1csc(NC(=O)C(C)(C)C)n1
    4.9%	x	9.5%	x	6.6%	1.3%	2.0%	-11.7%
- Cc1c(C(=O)c2ccccc2)oc2ccc3ccccc3c12
    0.3%	u	39.1%[activator]	u	x	x	2.3%	-5.7%
- CC(NC(=O)CCSc1nc(-c2ccco2)cc(C(F)(F)F)n1)c1ccccc1 (stereo not drawn)
    -8.1%	u	-29.2%	-21.7%	4.9%	-6.2%	-27.5%	-12.1%
- CC(=O)c1ccc(N2CCN(c3ncnc4onc(-c5ccc(Cl)cc5)c34)CC2)cc1
    x	-13.4%[46.1 µM]	-1.4%	u	3.16µM*	-16.4%	x	x
- CCc1ccc(NC(=O)CN2C(=O)C3(SCC(=O)N3c3ccccc3)c3ccccc32)cc1 (stereo not drawn)
    x	x	-10.8%	u	3.3%	-3.7%	x	x
- Clc1cnc(N/N=C/c2ccncc2)c(Cl)c1
    0.1%	1.3%[46.1 µM]	28.4%	8.4%[46.1 µM]	x	x	-10.2%	-20.4%
- Cc1ccc(Nc2nc3nonc3[nH]c2=O)cc1Cl
    -6.6%	u	-19.2%	u	x	x	x	u
- CCOC(=O)c1csc(NC(=O)c2ccc(S(=O)(=O)N3CCCC3)cc2)n1
    -1.1%	3.5%	-3.1%	-0.5%	2.6%	-2.2%	-4.3%	-1.3%
- COc1ccc(N2CCN(C(=O)Nc3ccccc3Cl)CC2)cc1
    -1.6%	u	-0.3%&-15.3%	-0.4%&10.6%[46.1 µM]	0.4%	-0.5%	-2.1%	u
- Nc1ccc(-n2nncc2-c2ccco2)cc1
    -1.6%	18.3%	-15.5%	6.0%	-28.5%	-2.0%	18.5%	-4.0%
- COc1ccc(NC(=O)c2cc(NC(=O)C3CCCCC3C(=O)O)ccc2N2CCOCC2)cc1 (stereo not drawn)
    x	8.7%	28.1%	0.4%	x	x	29.2%	8.1%
- CCOC(=O)N1CCN(C(=O)CSc2nc3c(cnn3-c3ccc(Cl)cc3)c(=O)[nH]2)CC1
    6.4%	-0.4%	-24.7%	2.4%	5.6%	-2.6%	-8.0%	-4.4%
- CCc1ccccc1Nc1nc(N)nc(COC(=O)CCC(=O)c2ccc(F)cc2)n1
    -2.0%	u	6.4%	10µM*	x	x	x	2.5%
- COc1ccc(N=C2C=CC(=O)O2)cc1
    x	-4.6%[46.1 µM]	-7.3%	9.1%[46.1 µM]	x	x	x	8.91µM*
- O=C(CSc1ncn[nH]1)Nc1ccc(Br)cc1F
    8.3%	-0.3%	35.4%[activator]	-1.7%	-0.9%	3.4%	3.1%	10.4%
- CCC(Sc1nc2sc(C(=O)OC)c(C)c2c(=O)n1N)C(=O)NCC1CCCO1 (stereo not drawn)
    6.4%	-9.6%	-28.2%	-24.7%[14.3 µM]	-11.7%	-6.6%	1.6%	-2.7%
- COc1ccc(NC(=O)CSc2nnc(-c3nnn(-c4ccc(F)cc4)c3C)o2)cc1
    x	x	38.6%[activator]	3.4%[46.1 µM]	5.5%	-0.4%	x	x
- O=C(Cc1ccc(F)cc1)Nc1cccc(-c2ccc3nncn3n2)c1
    -4.0%	-24.8%[46.1 µM]	-6.2%	-0.6%	x	x	x	-10.9%
- Cc1ccc(-n2c3c(cc(C(=O)NCCCN4CCOCC4)c2=O)C(=O)CC(C)(C)C3)cc1
    -9.6%	-4.9%	-14.8%	x	-6.6%	0.4%	14.7%	-0.7%
- CN(CC(=O)Nc1ccc(Cl)c(S(=O)(=O)N(C)C)c1)Cc1ccccc1
    4.5%	-1.9%[46.1 µM]	46.9%[activator]	u	x	x	10.7%	-9.5%
- COc1ccc(-c2c(C)nn3c(Cl)c(C)c(C)nc23)cc1
    -4.3%	4.0%	-26.1%	u	x	x	-5.7%	-6.4%
- O=c1[nH]c2c(s1)C(c1cccnc1)C1C3CCC(C3)C1S2 (stereo not drawn)
    -0.1%	x	-5.4%	x	x	x	0.2%	9.4%
- COC(=O)[C@@]1(Cc2ccc(OC)cc2)[C@H]2c3cc(C(=O)N4CCCC4)n(Cc4ccccn4)c3C[C@H]2CN1C(=O)c1ccccc1
    x	x	-18.1%	x	u	-1.6%	x	16.6%
- Cc1ccc(-n2nnc3c(=O)n(Cc4ccccc4C)cnc32)cc1
    -2.8%	x	-27.0%	x	-2.2%	4.9%	-30.9%	0.6%
- CCn1ccnc1[C@@H]1C[C@H]2CN(Cc3cccc(Cl)c3)C(=O)[C@]23CCCN13
    1.2%	-7.8%[46.1 µM]	1.4%	-5.7%	x	x	-1.8%	10.4%
- CC(=O)c1cccc(NC(=S)Nc2ccn(Cc3cccc4ccccc34)n2)c1
    12.3%	u	-7.0%	u	x	x	x	-13.3%
- Cc1cc(NC(=O)Cc2ccc(Br)cc2)no1
    -2.1%	12.2%	-1.1%	3.0%	x	x	7.1%	0.6%

One compound at a time, as listed above:
`Nc1ccc(-n2nncc2-c2ccco2)cc1` in the list: SARS PLP yeast: -1.6%; Marburg entry inh: 18.3%; 2A StopGo: -15.5%; LASV entry inh: 6.0%; Cruzain noTriton: -28.5%; Cruzain inh Det: -2.0%; NS1 inh: 18.5%; RE007 growth inh: -4.0%
`CCOC(=O)c1csc(NC(=O)C(C)(C)C)n1` in the list: SARS PLP yeast: 4.9%; Marburg entry inh: x; 2A StopGo: 9.5%; LASV entry inh: x; Cruzain noTriton: 6.6%; Cruzain inh Det: 1.3%; NS1 inh: 2.0%; RE007 growth inh: -11.7%

Some entries already given, showing only RE007 growth inh.
| compound | RE007 growth inh |
| --- | --- |
| COc1ccc(-c2c(C)nn3c(Cl)c(C)c(C)nc23)cc1 | -6.4% |
| O=c1[nH]c2c(s1)C(c1cccnc1)C1C3CCC(C3)C1S2 (stereo not drawn) | 9.4% |

(listing goes on)
Below each compound: SARS PLP yeast	Marburg entry inh	2A StopGo	LASV entry inh	Cruzain noTriton	Cruzain inh Det	NS1 inh	RE007 growth inh
- CC(C)C(=O)Nc1ccc(C(=O)N/N=C/C2CC3C=CC2C3)cc1 (stereo not drawn)
    1.9%	-26.5%	2.3%	5.3%[46.1 µM]	-7.5%	-3.8%	-0.4%	-15.0%
- O=C(CN1CCC(C(=O)c2ccc3c(c2)OCCO3)CC1)NCc1ccc(F)cc1
    18.0%	u	-17.0%	-12.2%[46.1 µM]	x	x	-0.7%	9.4%
- Cc1ccc(Cl)cc1N1CCN(S(=O)(=O)c2ccc3c(c2)CCN3C(=O)C2CCC2)CC1
    x	-1.5%[46.1 µM]	-19.6%	0.2%[46.1 µM]	3.4%	-0.8%	x	x
- COc1ccccc1CN1CN(S(=O)(=O)c2ccccc2)c2nc3ccccc3nc21
    3.7%	x	2.8%	x	x	x	12.2%	2.9%
- c1cncc(-c2nnc(SCc3cccc4ccccc34)o2)c1
    3.7%	x	-17.3%	x	13.8%	-3.0%	-87.0%	-19.5%
- Cc1ccc(S(=O)(=O)N2CCC(C(N)=O)CC2)cc1C(=O)NC1CCCCC1
    5.0%	-2.1%[46.1 µM]	28.4%	16.9%	x	x	x	2.9%
- CCOc1ccc(C2CC(=O)c3c([nH]c(C(=O)OCc4ccccc4)c3C)C2)cc1 (stereo not drawn)
    x	-11.8%[46.1 µM]	-8.2%	-8.0%[46.1 µM]	-9.1%	-1.2%	x	x
- CCCCNC(=O)Cn1nc(Cc2ccncc2)c2ccccc2c1=O
    0.1%	x	-21.1%	x	x	x	10.7%	-0.8%
- O=C(N=C1SC2CS(=O)(=O)CC2N1c1ccccc1F)C1CCCCC1 (stereo not drawn)
    2.5%	u	0.3%	-5.0%[46.1 µM]	x	x	7.0%	14.8%
- CC(=O)Nc1ccc(-c2cc(N)n(-c3ccccc3)n2)cc1
    -1.8%	-16.4%	29.7%	-18.7%	x	x	24.8%	3.9%
- CCOc1ccc(Cc2nnc(SCC(=O)Nc3c(C)cccc3C)[nH]c2=O)cc1
    -3.1%	-9.1%	-5.1%	5.3%[46.1 µM]	x	x	x	8.6%
- Cc1nn(C)c(C(=O)NN)c1Cl
    0.8%	u	-3.7%	3.2%	x	x	x	3.5%
- CCOc1ccc(/C=N/n2nnnc2N)cc1OCC
    -2.8%	x	7.2%	x	x	x	-11.2%	2.6%
- CCOc1cc(-c2nc(-c3ccc(-c4ccc(OC)cc4)nc3OC)no2)cc(OCC)c1OCC
    x	-2.6%[46.1 µM]	-4.9%	14.7%[46.1 µM]	-16.7%	-1.3%	x	x
- CC(=O)NCCNC(=O)c1ccc2c(=O)n(CCc3ccccc3)c(=O)[nH]c2c1
    x	u	30.5%[activator]	u	-3.6%	1.5%	x	x
- FC(F)C(F)(F)C(F)(F)C(F)(F)c1cc(-c2ccccc2)n[nH]1
    -7.2%	u	-3.0%	-1.8%	0.4%	-10.9%	-65.1%	u
- CCOc1ccc(N2C(=O)C(CC(=O)Nc3ccccc3)N(Cc3ccccn3)C2=S)cc1 (stereo not drawn)
    3.9%	u	-6.0%	u	x	x	x	10.8%
- Cc1cccc2sc(N3CCN(C(=O)c4ccco4)CC3)nc12
    x	x	9.3%	15.7%[46.1 µM]	5.4%	-8.6%	x	x

Rows were taken by chance; overall some 4.5% were active at least once.
